hNpr1 antagonist: human Npr1 receptor antagonism. HEK293 hNpr1 GloSensor cGMP, ANP-stimulated luminescence. 76,000 tested, 1.6% active. AID 1347048. Potency, µM (top dose mostly 46.3 µM), for inactives: at the highest dose activity change, negative = inhibition, most hits filed as inhibitors; active = well fitted inhibition curve with a large enough effect; inconclusive = small, poorly fitted or top-dose-only effect; inactive = no such curve, though single readings can be large or run the other way;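 note: nearly all actives have a fitted effect of over 60% in size; nearly all hits also lower the signal before the agonist is added; a reference antagonist and vehicle were the controls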
Target sequence (P16066 whole entry, looked up): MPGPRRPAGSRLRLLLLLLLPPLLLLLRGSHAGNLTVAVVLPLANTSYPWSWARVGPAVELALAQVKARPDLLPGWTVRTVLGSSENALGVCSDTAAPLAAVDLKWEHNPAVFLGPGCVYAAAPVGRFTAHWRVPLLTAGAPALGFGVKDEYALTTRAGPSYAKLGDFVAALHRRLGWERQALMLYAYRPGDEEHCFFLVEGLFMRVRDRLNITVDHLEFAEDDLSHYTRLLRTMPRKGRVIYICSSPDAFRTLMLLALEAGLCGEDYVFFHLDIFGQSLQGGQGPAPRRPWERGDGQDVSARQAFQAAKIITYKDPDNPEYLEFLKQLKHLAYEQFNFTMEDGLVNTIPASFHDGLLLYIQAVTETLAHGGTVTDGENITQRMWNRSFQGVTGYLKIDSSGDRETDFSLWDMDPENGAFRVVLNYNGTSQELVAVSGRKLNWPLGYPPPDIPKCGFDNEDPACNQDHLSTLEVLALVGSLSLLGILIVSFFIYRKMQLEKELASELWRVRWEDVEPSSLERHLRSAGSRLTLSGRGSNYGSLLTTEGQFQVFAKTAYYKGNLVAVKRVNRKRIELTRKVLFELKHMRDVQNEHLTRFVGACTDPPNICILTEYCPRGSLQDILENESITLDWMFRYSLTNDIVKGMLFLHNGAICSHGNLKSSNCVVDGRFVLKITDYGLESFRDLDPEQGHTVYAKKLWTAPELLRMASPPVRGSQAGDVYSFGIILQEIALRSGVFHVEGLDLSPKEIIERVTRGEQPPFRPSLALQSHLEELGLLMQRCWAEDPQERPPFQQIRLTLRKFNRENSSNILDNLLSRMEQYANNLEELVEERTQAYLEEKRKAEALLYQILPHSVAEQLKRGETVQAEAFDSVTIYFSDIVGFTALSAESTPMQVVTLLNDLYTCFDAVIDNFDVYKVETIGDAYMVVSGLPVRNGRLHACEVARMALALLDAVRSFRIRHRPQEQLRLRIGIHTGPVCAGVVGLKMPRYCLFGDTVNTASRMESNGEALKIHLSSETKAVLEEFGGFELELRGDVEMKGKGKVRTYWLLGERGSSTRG
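HEK293 cells stably expressing human Npr1 and cGMP GloSensor pGS-40F, loaded 2 h with 2% GloSensor reagent, given compound 30 min at room temperature. Luminescence read before and 20 min after 0.1 nM hNppA.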
Numbers without * were called inactive; ? = inconclusive; & = joins results of further samples; [ ] = another dose, or the depositor's remark. % is set by controls: 0 for no effect and ±100 for the full control effect; potency is the fitted concentration of half-maximal effect. This is a subset; the hit share may differ from the screen's.

Start of the listing, in advance (six entries):
molecule,hNpr1 antagonist
O=C(Cc1c[nH]c2ncc(-c3ccoc3)cc12)N1CCOCC1,-12%[70.6 µM]
CN1CCN(c2cc(=O)c3ccnc(N4CCOCC4)c3o2)CC1,4%[70.6 µM]
COc1c(F)ccc(C(=O)N2CCC3(CCCNC3)C2)c1F (stereo unspecified),-11%
CC(C)(C(=O)O)C1CCOCC1,9%
Cc1cccc(-c2ccc3c(c2)C(=O)N2C[C@H](O)C[C@H]2C(=O)N3)c1C,1%[70.6 µM]
CC(C)(C)CC(=O)N1CCC(N2CCCC(C(=O)NCc3ccccc3)C2)CC1 (stereo unspecified),5%

Main list, from the start:
molecule,hNpr1 antagonist
O=C(Cc1c[nH]c2ncc(-c3ccoc3)cc12)N1CCOCC1,-12%[70.6 µM]
CN1CCN(c2cc(=O)c3ccnc(N4CCOCC4)c3o2)CC1,4%[70.6 µM]
COc1c(F)ccc(C(=O)N2CCC3(CCCNC3)C2)c1F (stereo unspecified),-11%
CC(C)(C(=O)O)C1CCOCC1,9%
Cc1cccc(-c2ccc3c(c2)C(=O)N2C[C@H](O)C[C@H]2C(=O)N3)c1C,1%[70.6 µM]
CC(C)(C)CC(=O)N1CCC(N2CCCC(C(=O)NCc3ccccc3)C2)CC1 (stereo unspecified),5%
COC(=O)[C@@H]1Cc2c([nH]c3ccccc23)[C@H]2C[C@@H](NC[C@H]3CCCO3)C[C@@H](c3ccccc3F)N21,5%
CC(C)NC(=O)C[C@@H]1C[C@H]2O[C@H](CNC(=O)Nc3ccc(F)cc3)[C@@H](O)[C@H]2O1,2%[70.6 µM]
COc1ccccc1CNC(=O)CCc1ccc2c(c1)CN(S(C)(=O)=O)CCO2,-9%
COC(=O)C1=CN(CC(=O)Nc2ccccc2C)S(=O)(=O)N=C1C,3%
Cc1ccc(CNc2ccc3nnc(C4CCC4)n3n2)o1,-3%
CCc1noc(-c2cn(C3CCN(C(=O)c4ccc(F)c(F)c4)CC3)nn2)n1,0%
Cc1cc(C(=O)N[C@H](C)c2onc(-c3cccnc3)c2C(=O)O)nn1C,0%[70.6 µM]
Cc1cc(S(=O)(=O)N[C@@H]2CCOC[C@H]2OCc2cscn2)n(C)n1,0%
O=C(COc1ccc(Cl)cc1)N1CCN(c2cc(-c3ccccc3)[nH]n2)CC1,-27%
COc1ccc(C(=O)N2CCCC(c3nn(-c4ccc(Cl)cc4)c(=O)[nH]3)C2)cc1 (stereo unspecified),18%
COc1ccc(CN2C(=O)[C@@H]3C[C@@H](O)CN3C3(CN(Cc4cccc(OC)c4)C3)C2=O)cc1,-12%
COc1ccc(-c2nc3c(c(=O)[nH]2)CCN(S(=O)(=O)C2CC2)C3)cc1,4%
CC(C)(O)CCc1cccc(C(=O)NCCNc2cccnc2)c1,-6%
Cc1ccccc1CN1C[C@@H]2C(=O)N(C)C(=O)[C@@H]2C1,-1%
COCC(=O)N1CCN(C(C)=O)C[C@@H]1C(=O)N[C@H](Cc1cccnc1)C(=O)OC,1%[70.6 µM]
Cc1[nH]ncc1C(=O)N[C@@H]1CN(S(C)(=O)=O)C[C@H]1CN(C)C,-3%
Cc1ccc(C(=O)N2CCC(n3cc(-c4nc(C(C)C)no4)nn3)C2)cc1 (stereo unspecified),-14%
COCCNc1nc(-c2c(C)noc2C)cc2cc(CO)oc12,4%[70.6 µM]
Cc1cccc(OCC(=O)N[C@@H]2CCOC[C@H]2OCc2cscn2)c1C,-2%
FC(F)(F)c1ccc(-c2cnc([C@@H]3COCCN3Cc3ccncc3)[nH]2)cc1,-10%[70.6 µM]
Cc1noc(C)c1[S+](=O)([O-])N1CCc2nc(-c3ccc(Cl)cc3)nc(-c3ccccc3)c2C1,1%
CCOCCn1c(=O)[nH]c2cc(C(=O)N3CCC(OC)CC3)ccc21,6%
CC1(C)[C@H](Cc2cc(CCO)on2)C[C@@H]1NCc1ccccn1,0%[70.6 µM]
CCOC(=O)CCNC(=O)N1CCC(C(=O)N2CCCCCCNC(=O)CC2)CC1,-13%
O=C1Nc2ccc(-c3ccsc3)cc2C(=O)N2C[C@H](O)C[C@@H]12,2%[70.6 µM]
O=C(Nc1cccc(-c2ccc(N3CCOCC3)nn2)c1)Nc1ccccc1C(F)(F)F,-23%
O=C(c1cccc(Cl)c1)N1CCC(c2nn(Cc3ccccc3)c(=O)[nH]2)CC1,40%&-7%[activator]
Cc1nc(C)c(C(=O)N2C[C@@H](Oc3ccccc3)C[C@H]2C(=O)NC2CC2)s1,5%
O=C1NCCCCCCN(C(=O)c2cnccn2)[C@H]2CCCC[C@@H]12,-6%
COCCC(=O)N1C[C@@H](COc2cccnc2)[C@H](c2ccccn2)C1,5%
O=C(Nc1cccc(F)c1)C1(CCO)CCN(c2ncccn2)C1 (stereo unspecified),3%
OCc1ccc(-c2nccn2CCc2noc(-c3ccccc3)n2)o1,-1%
O=C(C1CC1)N(C1CCOCC1)C1CCN(S(=O)(=O)C2CC2)CC1,1%
Cc1ccc(C2Cn3nnc(C(=O)N4CCC(C(=O)NCc5ccco5)CC4)c3CO2)cc1 (stereo unspecified),5%
COc1ccc2c(ccn2CCNC(=O)Cn2nc3c(cc2=O)CCCCC3)c1,2%
Cc1cccc(C(C(=O)N2CCN(Cc3noc(C)n3)CC2)N(C)C)c1 (stereo unspecified),3%
Cc1ccccc1C(=O)N1CC(C(=O)N(C)C)C2(CCOCC2)C1 (stereo unspecified),3%
CC(=O)N1CCC([C@@H]2CN(C3CCSCC3)C[C@H]2CO)CC1,-1%
CCNC(=O)C1N(C(C)C)C(=O)C12CCCC2 (stereo unspecified),2%
Cc1cc2cc(-c3c(C)noc3C)nc(N(C)C)c2o1,-2%[70.6 µM]
CC(C)CNc1ccc2c(n1)C(C)(C(=O)Nc1ccncc1)CN(Cc1ccccc1)C2 (stereo unspecified),-16%[70.6 µM]
COc1ccc(CN2CC(Oc3ccccc3C(=O)NC3CC3)C2)cc1OC,-13%
O=C(Cn1ccnc1)N1CCCCC1c1noc(COc2ccc(F)cc2)n1 (stereo unspecified),3%
O=C(O)C[C@@H]1CCN(C(=O)Cc2ccccc2)C[C@@H]1CCN1C[C@@H]2C[C@H](C1)c1cccc(=O)n1C2,0%
CC(=O)c1cccc(NC(=O)Cn2c(=O)n(-c3ccccc3)c(=O)c3c2cc(C)n3C)c1,-3%
CC(C(=O)NCc1ccccc1)N1C(=O)COc2ccc(C(=O)COc3ccc(F)cc3)cc21 (stereo unspecified),2%
CC(C)N1CCC2(CC1)CN(C(=O)Cc1cccc(F)c1)Cc1ccccc1O2,-1%
Cc1ccc(C(=O)N2CC(C(=O)NCCc3ccncc3)C3(CCOCC3)C2)cc1 (stereo unspecified),1%
COc1ccc(CC(=O)N[C@@H]2CN(c3ccncn3)C[C@H]2CO)cc1,-8%
CC(C)c1nc2c(c(-c3ccc(O)cc3)n1)CN(C(=O)Nc1ccc(Cl)cc1)CC2,1%
CCOc1ccc(CC(=O)N2CCCN(C)c3ccccc32)cc1,-8%
CNC(=O)[C@H]1C[C@H](Oc2cccnc2)CN1C(=O)c1ccccc1,5%
Cc1cc(Cl)ccc1S(=O)(=O)N1CC(c2noc(-c3cccnc3)n2)C1,-19%
CCNC(=O)[C@@H]1C[C@H](NC(C)=O)CN1Cc1ccc(OC2CCCC2)cc1,1%

Later entries.
molecule,hNpr1 antagonist
Cc1ccc(C(C)NC(=O)CNC23CC4CC(CC(C4)C2)C3)cc1 (stereo unspecified),-1%
CN(C)c1ccc(CN2CC[C@H](c3nnc(-c4ccco4)o3)C2)cc1,-1%[70.6 µM]
O=C1CO[C@H]2CN(c3nccc(C(F)(F)F)n3)C[C@H]2N1Cc1ccc(F)cc1,-1%[70.6 µM]
COCC(=O)N1CCCC(C(=O)N(C)CCn2ccnc2C)C1 (stereo unspecified),3%
Cc1cccnc1C(=O)N[C@@H]1CN(Cc2ccccc2)C[C@H]1CO,2%
CN(Cc1ccc2nonc2c1)C(=O)COc1ccc(Cl)cc1Cl,2%
COc1ccc(C(=O)N2[C@@H]3CC[C@H]2CC(NC(=O)c2ccncc2)C3)cc1OC (stereo partly specified),-2%
COCC(=O)N(C[C@H]1O[C@@H](CC(=O)NC(C)C)[C@H](O)[C@@H]1O)C[C@H]1O[C@@H](CC(=O)NC(C)C)[C@H](O)[C@@H]1O,-3%
CCCCCC(=O)N1CCC(O)(c2csc(CN3CCN(c4ccccn4)CC3)n2)CC1,-2%
O=C(c1cc(-c2ccc(F)cc2)nc2ccccc12)N1CCCC(c2nc(C3CCOCC3)no2)C1 (stereo unspecified),9%
CCCS(=O)(=O)N1CCc2nn(CC3CC3)c(=O)n2CC1,-1%
N#Cc1ccccc1-c1ccc(-c2cn(Cc3nnc4ccccn34)nn2)o1,-25%
COCc1noc([C@@H]2CC(F)(F)CN2C(=O)C2CCC2)n1,-3%
COc1cccc(C(=O)N2CCC(n3cc(-c4nc(C5CC5)no4)nn3)C2)c1 (stereo unspecified),0%
Cc1cc(C(=O)NC2CCc3nnc(C4CC4)n3CC2)c(C)n1Cc1ccco1 (stereo unspecified),5%
COC[C@@H]1CN(C(=O)c2ccccc2OC)C[C@H]1c1ccccn1,0%
Cc1nc(N2CCC(C(=O)NCc3cccc(Cl)c3)CC2)cc(C(F)(F)F)n1,10µM*
CCN1c2cc(C(=O)NCc3ccccc3Br)ccc2C(=O)N2CCCCC21 (stereo unspecified),2%
Fc1cc(F)cc(Cc2nc3nccc(-c4cccs4)n3n2)c1,-10%
CN1CC(=O)N(C2CCCC2)Cc2c(NCc3ccc(F)cc3)ncnc21,2%
COc1ncc(CN2CCC3(CC2)OC(=O)N(Cc2ccccc2)C3(C)c2ccccc2)cn1 (stereo unspecified),-2%
CO[C@H]1[C@H](NC(=O)Cc2ccccc2)c2ccccc2C12CCNCC2,4%
CN(CCc1noc(C2CN(C(=O)CN3CCOCC3)C2)n1)S(C)(=O)=O,10%
COc1ccccc1OCCNC(=O)CC1=C2CCCCC2N(Cc2ccccc2)C1=O (stereo unspecified),2%
COc1ccccc1NC(=O)Cn1ccn2nc3c(c2c1=O)CCCCC3,-16%
O=C(c1cnccn1)N1CCN(C(=O)N2CC3CC(C2)[C@H]2CCCC(=O)N2C3)CC1 (stereo partly specified),-10%
COCc1ccc(C(=O)N2CCn3nc(CCC(=O)NC4CC4)cc3C2)o1,6%
COc1ccc(C(=O)N[C@@H]2CCC[C@@H]2C(=O)N2CCN(c3cc(C)ccc3C)CC2)cn1,-5%
CCc1noc(-c2cccn3c(CNC(=O)c4cccc(F)c4)nnc23)n1,-13%
CNC(=O)CCn1ncc2cc(OCc3ccccc3-c3ccc(OC)cc3)ccc21,-1%[70.6 µM]

Some of these compounds in order of heavy-atom count, largest number first:
molecule,hNpr1 antagonist
COc1ccc(C(=O)N[C@@H]2CCC[C@@H]2C(=O)N2CCN(c3cc(C)ccc3C)CC2)cn1,-5%
CNC(=O)CCn1ncc2cc(OCc3ccccc3-c3ccc(OC)cc3)ccc21,-1%[70.6 µM]
CCc1noc(-c2cccn3c(CNC(=O)c4cccc(F)c4)nnc23)n1,-13%

(cont.)
molecule,hNpr1 antagonist
O=C(NC[C@H]1O[C@H](Cc2cc(-c3ccccn3)on2)CC[C@@H]1O)Nc1ccccc1,5%[70.6 µM]
O=C(O)c1ccc(CN2Cc3[nH]cnc3C[C@H]2c2nc(-c3ccc4ccccc4c3)no2)cc1,-6%
CCc1cccc2c(C(CC(=O)NCCOC)c3ccc(OC)c(OC)c3)c[nH]c12 (stereo unspecified),0%
O=C(O)CCCC(=O)N1C[C@@H](C(=O)O)[C@H](c2ccc3c(c2)OCO3)C1,7%
COc1ccc2[nH]c3c(c2c1)CCN(C)C31CCN(C(=O)c2nccc3ccccc23)CC1,5%
CCC(CC)C(=O)N[C@H]1CCN2C(=O)c3cc(-c4cc(Cl)ccc4OC)ccc3NC(=O)[C@@H]2C1,1%
COC(=O)C1=C(C)N=C2SC=C(CC(=O)NCC3CC3)N2C1c1ccccc1OC (stereo unspecified),-17%
Cc1cc(C)cc(C(=O)NCc2nnc3ccc(-c4ccccc4)nn23)c1,-3%
Cc1ccc(S(=O)(=O)NC[C@H]2O[C@@H](CC(=O)N3CCCC3)[C@H](O)[C@@H]2O)cc1,2%[70.6 µM]
COc1ccc(C(=O)NC2CCN(c3cc(-c4cccs4)[nH]n3)C2)c(C)c1 (stereo unspecified),0%
O=C(NCc1cccnc1)c1ccc(-c2ccc(N3CCSCC3)nc2)cc1,11µM*
COc1ccc(CN2CCc3ncc(C(=O)Nc4ccccc4C)n3CC2)cn1,0%[70.6 µM]
O=C(c1ccncn1)N1CCC(Oc2cnc3c(ccn3-c3cncnc3)c2)CC1,4%[70.6 µM]
COCC(=O)N1CCCN(Cc2c(F)ccc(C)c2F)CC1,0%
O=c1[nH]c(CC2CC2)nc2c1CCN(CC1(O)CCCNC1)C2 (stereo unspecified),1%
O=C(c1cccc(F)c1)N1CCN(c2cc(-c3cccs3)[nH]n2)CC1,?
CCc1cccc(NC(=O)C2CCN(C(=O)c3ncn4c3COC(c3ccc(OC)cc3)C4)CC2)c1 (stereo unspecified),1%
CCc1ccc(CNC(=O)CN2CC3CC(C2)[C@H]2CCCC(=O)N2C3)cc1 (stereo partly specified),3%
COCCc1noc([C@@H]2CC(F)(F)CN2C(=O)c2ocnc2C)n1,2%
O=C(O)Cn1nc(C2CCOCC2)nc1CC1NC(=O)NC1=O (stereo unspecified),4%
COCCn1cnc2ccc(-c3ccccc3)nc2c1=O,7%[70.6 µM]
